Screening results from PubChem BioAssay.
D2 potentiator: positive allosteric modulators of human D2 dopamine receptor. AID 624464. potentiation, % (no concentration beside the values). 360,000 tested, 0.23% active. DiscoveRx D2 beta-arrestin cells, luminescence, 90 min; 100% = 57 uM dopamine signal; active = potentiation of 50% or more; inconclusive = 30% to 50%; inactive = 30% or less;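 also: compound concentration not given in the record; tested on top of an EC20 dose of dopamine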
Target sequence (P14416 whole entry, looked up): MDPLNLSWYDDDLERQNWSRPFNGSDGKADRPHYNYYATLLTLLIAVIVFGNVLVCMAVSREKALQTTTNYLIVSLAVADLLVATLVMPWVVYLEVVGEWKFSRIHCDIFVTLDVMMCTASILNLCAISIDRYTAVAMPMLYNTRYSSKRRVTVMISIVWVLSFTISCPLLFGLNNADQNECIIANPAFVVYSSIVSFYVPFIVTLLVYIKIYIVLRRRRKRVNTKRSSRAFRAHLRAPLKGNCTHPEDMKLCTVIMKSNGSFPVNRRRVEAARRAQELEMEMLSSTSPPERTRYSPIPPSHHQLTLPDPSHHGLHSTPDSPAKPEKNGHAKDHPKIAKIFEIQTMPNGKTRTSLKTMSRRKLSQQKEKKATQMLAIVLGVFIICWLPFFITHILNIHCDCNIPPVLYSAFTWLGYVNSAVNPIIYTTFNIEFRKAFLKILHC
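PathHunter D2 cells, attached overnight at 37 deg C, received compound in DMSO plus dopamine at EC20 (50 nM final) for 90 min at 37 deg C. Beta-arrestin recruitment was read as luminescence after 1 h with detection reagent at ambient temperature.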
TRPV1 PAM: enhances activation of the human vanilloid receptor TRPV1; Q8NER1; TRPV1-expressing cells, Fluo-8 calcium influx, capsaicin EC20 potentiation; host cell line not named in the record; control for the full effect not named in the record; potentiation, % at 8.33 µM; 320,000 tested, 0.02% active; AID 540277; active means potentiation above 80%; inconclusive means 30% to 80%; inactive means below 30%; also: 0% is about no effect
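TRPV1-expressing cells were cultured overnight at 35.5C and loaded with Fluo-8 calcium dye for 40 to 90 min at room temperature. After a 10 s baseline, compound was added and calcium influx was read kinetically for 3 min (ex 480/em 520 nm).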
Six1-Eya2 blk: inhibitors of human Six1/Eya2 interaction; Q15475+O00167; AlphaScreen GST-Six1/His-Eya2 binding, biochemical; active compounds read low; control for the full effect not named in the record; activity change, % (test concentration not listed); 360,000 tested, 0.56% active; in the data active = activity change below about -65%; inconclusive = about -30% to -65%; inactive = above about -30%; also: % is scaled to controls: 0 for no effect and ±100 for the full control effect
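AlphaScreen luminescence read after one hour at 37 °C in darkness. Pin-transferred compounds met GST-Six1 and His-Eya2 protein (5X stock 250 nM/500 nM) plus glutathione donor and Ni-chelate acceptor beads (5X, 50 ug/mL).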
CtBP-E1A inh: CtBP/E1A binding inhibition. AlphaScreen GST-E1A/His-CtBP binding, 1536-well; active compounds read low; control for the full effect not named in the record. activity change, % (no concentration beside the values). 340,000 tested, 0.49% active; in the data active means activity change below about -65%; inconclusive means about -30% to -65%; inactive means above about -30%; also: % is scaled to controls: 0 for no effect and ±100 for the full control effect
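GST-E1A and His-tagged CtBP (125 nM each as 5X stock) were preincubated with pin-transferred compound for 2 h at 37 °C in the dark, then glutathione donor and nickel acceptor beads were added for 1 h before AlphaScreen reading.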
D2 ag: agonists of human D2 dopamine receptor (beta-arrestin). activation, % (no concentration beside the values). 360,000 tested, 0.084% active. DiscoveRx PathHunter D2 beta-arrestin, luminescence, 90 min; 100% = 57 uM dopamine signal. AID 624465. P14416; in the data active = activation above about 40%; inconclusive = about 15% to 40%; inactive = below about 15%; also: compound concentration not given in the record; the text of the record calls up to 30% inactive
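Agonist mode: compounds alone added to overnight-plated D2 PathHunter cells for 90 min at 37 C, with 57 uM final dopamine (EC100) defining full response. Beta-arrestin recruitment detected by chemiluminescent reagent, read after 1 h at ambient temperature.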
Sfp PPTase inh: blocks B. subtilis Sfp PPTase activity; 310,000 tested, 3.5% active; AID 1490; Biochemical Sfp PPTase activity, qHTS; Potency, µM, for the others: max response, negative = inhibition, usual class: inhibitors; active = well fitted inhibition curve with a large enough effect; inconclusive = small, poorly fitted or top-dose-only effect, or another doubt; inactive = no such curve, though single readings can be large or run the other way;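 also: the enzyme is Sfp with the accession as filed and its product quenches rhodamine fluorescence; potency is read from the fitted curve at half-maximal effect; 0% = enzyme reaction without inhibitor and -100% = no enzyme wells; top concentration of the series not given in the record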
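With Hepes-Na pH 7.6 buffer containing 10 mM MgCl2, Sfp (15 nM) modified BHQ-2-YbbR (12.5 uM) using rhodamine-CoA (5 uM). Two reads 30 minutes apart at 525/598 nm yielded each well's rate.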
PINK1 modulator: changes PINK1 expression. PINK1 immunofluorescence, high-content cytometry, 24 h. Potency, µM (series often up to 76.6 µM), for the others: at the top dose activation (PINK1 increase), usual class: activators. 410,000 tested, 0.2% active. AID 624263; active = well fitted activation curve with a large enough effect; inconclusive = small, poorly fitted or top-dose-only effect; inactive = flat fitted curve, though single readings scatter; cell line not stated here;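 also: potency is read from the fitted curve at half-maximal effect; % of control where 0% means no effect; nearly all actives have a fitted effect of over 65% in size; a mitochondrial uncoupler was the plate control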
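Readout is PINK1 immunofluorescence, quantified alongside mitochondrial, cell and nuclear markers by laser-scanning microplate cytometry. Cells from a stable line were exposed to compound titrations (5 concentrations) for 24 hours, with CCCP controls.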
Starred values were filed as active, the others as inactive; ? = inconclusive; . = no result given; [ ] = dose if it differs, or a comment.

SMILES	D2 potentiator	TRPV1 PAM	Six1-Eya2 blk	CtBP-E1A inh	D2 ag	Sfp PPTase inh	PINK1 modulator
CCOC(=O)CSc1nnc(-c2ccc(OC)cc2OC)o1	-6	-12	4	-6	0.0	7%	0.0%[38.3 µM]
O=C(Nc1ncc2c(n1)-c1ccccc1OC2)c1ccc(Cl)cc1Cl	1	1	1	1	0.3	28%	8.2%
CCc1cc2c(cc(C(=O)O)n2C)s1	-4	-15	-5	1	-2.3	14%	2.2%
CC(C)n1c(SCC(=O)Nc2ccc3c(c2)OCO3)nc2c1c(=O)n(C)c(=O)n2C	-13	10	-11	-16	0.9	11%	13%[38.3 µM]
CSc1ncnc2c1ncn2CCCNCc1cccc2ccccc12	.	.	-2	-2	-0.6	.	-0.1%
Cc1nc(C#N)c(N/N=C/c2c(F)cccc2Cl)o1	-7	-3	2	0	-2.3	3%	0.7%
COc1ccc(C(=O)NCC(=O)n2nc(C)cc2C)cc1OC	1	-5	7	7	-0.3	12%	0.5%
Cc1ccc(Cn2c(C(C)Nc3nc(-c4ccc(Cl)c([N+](=O)[O-])c4)cs3)nc3cc(C(F)(F)F)ccc32)cc1 (stereo not drawn)	0	.	-2	-4	-2.3	.	9.8%
COCCNC(=O)Cn1cc(/C=N/NC(=O)c2ccc(Oc3ccc(O)cc3)cc2)c2ccccc21	-1	1	-11	0	5.3	18%	-1.0%
C[C@H](CO)N1C[C@H](C)[C@@H](CN(C)Cc2ccncc2)Oc2c(NC(=O)CCCCCC(=O)Nc3ccccc3N)cccc2C1=O	-6	.	?	-22	-2.3	.	-0.1%
CCCc1ncc(C(=O)c2ccc(OC)cc2)n1C	-7	2	2	-1	2.3	14%	0.5%[38.3 µM]
COC(C(=O)Nc1ccc(S(=O)(=O)Nc2ccc(C)c(C)c2)cc1)c1ccccc1 (stereo not drawn)	-2	-5	-5	0	3.8	17%	1.7%
CC1CCN(C(=O)CN(c2cccc(F)c2)S(C)(=O)=O)CC1	-4	-5	10	-19	-1.0	11%	-1.4%
NC(=O)C1(N2CCCCC2)CCN(Cc2ccc(Br)cc2)CC1	-18	-1	4	.	-1.7	-11%	-0.3%
Cc1nc2ccc(NS(=O)(=O)c3c(F)cc(F)cc3Br)cc2s1	2	-4	4	.	0.5	.	5.1%
O=C(NC(=S)NC1CCSC1=O)c1cccs1 (stereo not drawn)	-16	1	0	10	-0.5	-4%	2.8%
C=CCn1c(CC(=O)Nc2ccc(C)cc2C)nnc1SCC(=O)N1CCOCC1	-17	30	-10	-7	-6.2	14%	1.6%
CCOC(=O)CN(C(=O)COC(=O)C1=NNC(=O)CC1)c1ccc(F)cc1	-4	.	0	7	0.5	.	2.3%
NC1=NC2=C(CCCC2)C2(CCCCC2)S1	-11	2	-1	-10	-1.4	-17%	6.0%[38.3 µM]
Cc1ccc(CNC(=O)c2cc3c(=O)n(C)c4ccccc4c3n2C)o1	1	5	-7	-1	3.3	56µM*	8.1%
CSc1ccccc1OCc1cc(C(=O)N(C)Cc2ccncn2)no1	-4	2	0	3	-5.8	3%	2.4%
O=c1cc(CS(=O)(=O)c2ccccc2)nc(-c2ccncc2)[nH]1	-7	-6	12	.	0.5	4%	0.4%
CC1CCCCC1NC(=O)CSc1nnc(-c2ccco2)n1C (stereo not drawn)	-16	4	6	13	-4.6	.	0.8%
CCN(CC)CCCNC(=O)CSc1nc(-c2cccs2)cc(C(F)(F)F)n1	-12	2	0	-1	-2.9	5%	0.7%
CCn1c(SCC(=O)Nc2ccc3c(c2)OCCO3)nnc1-c1cccnc1	0	-2	6	4	-2.7	-3%	2.7%

Of the compounds above, these have a furan ring, fused or not.
SMILES	D2 potentiator	TRPV1 PAM	Six1-Eya2 blk	CtBP-E1A inh	D2 ag	Sfp PPTase inh	PINK1 modulator
Cc1ccc(CNC(=O)c2cc3c(=O)n(C)c4ccccc4c3n2C)o1	1	5	-7	-1	3.3	56µM*	8.1%
CC1CCCCC1NC(=O)CSc1nnc(-c2ccco2)n1C (stereo not drawn)	-16	4	6	13	-4.6	.	0.8%

The listing continues.
SMILES	D2 potentiator	TRPV1 PAM	Six1-Eya2 blk	CtBP-E1A inh	D2 ag	Sfp PPTase inh	PINK1 modulator
Cc1ccc(C)c(/C=C2\N=C(c3ccccc3F)OC2=O)c1	-1	5	0	.	-1.3	-1%	1.3%
CC(C)c1cccc(C(C)C)c1NC(=O)COC(=O)C1CCC1	-4	29	-3	10	1.5	.	1.7%
CNC(=O)CSc1nnnn1CCCOC	-3	0	6	3	-0.5	3%	-1.4%
COc1ccccc1CNC(=O)c1cccc(C)c1[N+](=O)[O-]	-14	-1	5	5	-3.2	4%	2.2%
COc1ccc(Br)cc1CN(C)C(C)C(=O)Nc1cccc(C(C)=O)c1 (stereo not drawn)	-9	-11	0	-3	-3.8	-1%	-1.8%
COC(=O)/C=C1/S/C(=N/N=C/c2ccco2)NC1=O	-9	7	1	4	-1.5	8%	-1.8%
COc1ccc(CCCc2nnc(SCc3nc4ccccc4c(=O)[nH]3)n2C)c(C)c1	-11	1	4	2	-4.3	6%	5.6%
Cc1n[nH]c(C)c1N1C(=O)c2cccc3cc(Br)cc(c23)C1=O	-20	1	2	-5	-0.4	10%	1.5%
CCOC(=O)c1nc(C)sc1-c1ccnn1S(=O)(=O)c1cccc(Cl)c1	-15	17	-1	1	-6.3	-30%	-0.9%
CCn1c2ccc(F)cc2c2nnc(NN)nc21	2	-14	-24	-3	-1.0	?	8.4%

Some of these compounds in order of length of the SMILES, lowest first.
SMILES	D2 potentiator	TRPV1 PAM	Six1-Eya2 blk	CtBP-E1A inh	D2 ag	Sfp PPTase inh	PINK1 modulator
CNC(=O)CSc1nnnn1CCCOC	-3	0	6	3	-0.5	3%	-1.4%
CCn1c2ccc(F)cc2c2nnc(NN)nc21	2	-14	-24	-3	-1.0	?	8.4%
CC1CCCCC1NC(=O)CSc1nnc(-c2ccco2)n1C (stereo not drawn)	-16	4	6	13	-4.6	.	0.8%
COC(=O)/C=C1/S/C(=N/N=C/c2ccco2)NC1=O	-9	7	1	4	-1.5	8%	-1.8%
CSc1ccccc1OCc1cc(C(=O)N(C)Cc2ccncn2)no1	-4	2	0	3	-5.8	3%	2.4%
COc1ccccc1CNC(=O)c1cccc(C)c1[N+](=O)[O-]	-14	-1	5	5	-3.2	4%	2.2%
O=c1cc(CS(=O)(=O)c2ccccc2)nc(-c2ccncc2)[nH]1	-7	-6	12	.	0.5	4%	0.4%
Cc1n[nH]c(C)c1N1C(=O)c2cccc3cc(Br)cc(c23)C1=O	-20	1	2	-5	-0.4	10%	1.5%
CCN(CC)CCCNC(=O)CSc1nc(-c2cccs2)cc(C(F)(F)F)n1	-12	2	0	-1	-2.9	5%	0.7%
CCOC(=O)c1nc(C)sc1-c1ccnn1S(=O)(=O)c1cccc(Cl)c1	-15	17	-1	1	-6.3	-30%	-0.9%
CCOC(=O)CN(C(=O)COC(=O)C1=NNC(=O)CC1)c1ccc(F)cc1	-4	.	0	7	0.5	.	2.3%
COc1ccc(CCCc2nnc(SCc3nc4ccccc4c(=O)[nH]3)n2C)c(C)c1	-11	1	4	2	-4.3	6%	5.6%
